Assay outcomes (PubChem)
gsp agonist – gsp mutant agonism. Potency, µM (series often up to 76.9 µM), for inactives: at the highest dose activation (cAMP increase), hits mostly activators. gsp mutant cells, cAMP HTRF, 30 min; control for the full effect not named in the record. AID 624287. hit rate 0.13% among 340,000; active = well fitted activation curve with a large enough effect; inconclusive = small, poorly fitted or top-dose-only effect, or another doubt; inactive = no such curve, though single readings can be large or run the other way; cell line not stated here;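 note: phosphodiesterase inhibitor Ro 20-1724 added with compounds to block cAMP breakdown; potency is the fitted concentration of half-maximal effect; nearly all actives have a fitted effect of over 60% in size; about a fifth of the inactives were tested at one dose only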
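Cells in DMEM/10% FBS with G418 were pretreated with compounds in DMSO plus […] (300 uM stock) for 30 min at 37C. cAMP was measured by HTRF (cAMP-d2 plus anti-cAMP antibody-K) after 30 min at room temperature.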
ClpP mod – qHTS Assay for Activators of ClpP | ATP-dependent Clp protease proteolytic subunit (Bacillus subtilis (strain 168)), P80244 | purified B. subtilis ClpP, FRET peptide cleavage, 20 min | Potency, µM (series often up to 57.5 µM), for the others: at the top dose activity change, negative = active | hit rate 1.9% among 340,000 | AID 651965, 2013; active = well fitted falling curve with a large enough effect; inconclusive = small, poorly fitted or top-dose-only effect; inactive = no such curve, though single readings can be large or run the other way; note: potency is the fitted concentration of half-maximal effect; the source files actives as falling curves though it sought activators and does not explain the sign; nearly all actives have a fitted effect of over 65% in size; many hits overshoot -100%
Target sequence (P80244 whole entry, looked up): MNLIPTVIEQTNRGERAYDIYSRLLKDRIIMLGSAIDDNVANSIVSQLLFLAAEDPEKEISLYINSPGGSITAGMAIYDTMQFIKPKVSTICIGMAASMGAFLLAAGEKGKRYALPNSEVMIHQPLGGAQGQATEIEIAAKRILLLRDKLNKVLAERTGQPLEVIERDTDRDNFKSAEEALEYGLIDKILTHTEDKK
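FRET quenching reversal measured ClpP activation: 10 microg/mL B. subtilis ClpP at pH 8 with the FRET-FV decapeptide, read at 430 nm after 320 nm excitation. The 20-min minus 0-min signal was scaled between DMSO/no-enzyme wells and ADEP (5.8 microM final).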
TRPML1 inh – blocks the human TRPML1 channel. Q9GZU1. AID 624415. activity change, negative = inhibition, % (test concentration not listed). TRPML1-inducible cells, Ca2+ dye fluorescence, FDSS; stronger effect = lower value; inhibition of EC80 agonist-evoked calcium signal. hit rate 0.02% among 390,000; in the data active means activity change below about -50%; inconclusive means about -30% to -50%; inactive means above about -30%;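 note: stimulus is agonist 54-4 at its EC80 concentration; % is set by controls: 0 for no effect and ±100 for the full control effect; compound concentration not given in the record; the text of the record puts the active cut at -80%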
Target sequence (Q9GZU1 whole entry, looked up): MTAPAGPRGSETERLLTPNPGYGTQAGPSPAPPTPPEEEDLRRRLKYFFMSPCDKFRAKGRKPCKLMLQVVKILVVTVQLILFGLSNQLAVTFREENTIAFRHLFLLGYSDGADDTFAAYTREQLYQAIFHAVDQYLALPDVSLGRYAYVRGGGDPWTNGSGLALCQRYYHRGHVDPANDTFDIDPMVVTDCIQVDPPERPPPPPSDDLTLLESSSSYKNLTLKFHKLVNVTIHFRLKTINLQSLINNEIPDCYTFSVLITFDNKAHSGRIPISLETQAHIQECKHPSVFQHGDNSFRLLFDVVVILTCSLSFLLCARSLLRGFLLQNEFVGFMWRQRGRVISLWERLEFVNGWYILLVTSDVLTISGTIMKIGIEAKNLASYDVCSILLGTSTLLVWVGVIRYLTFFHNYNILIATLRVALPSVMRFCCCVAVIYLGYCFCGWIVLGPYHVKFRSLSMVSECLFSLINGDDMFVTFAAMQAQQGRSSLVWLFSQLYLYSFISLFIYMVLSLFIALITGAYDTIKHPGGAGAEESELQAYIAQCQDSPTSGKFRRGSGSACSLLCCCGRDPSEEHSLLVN
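Calcium fluorescence in TRPML1-DL cells induced overnight with Tet: a 110 s read after compound pin addition, then a 110 s antagonist read after challenge with 54-4 at 4 uM final (EC80).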
Menin-MLL FL inh – inhibitors of human menin-MLL interaction, wild-type MLL peptide. FP activity change, % at 61.4 µM. AID 1766. Fluorescence polarization, fluorescein-MLL peptide displacement from menin. 290,000 tested, under 10 active; inconclusive = falling polarisation curve, or a change in total fluorescence; inactive = total fluorescence flat and polarisation flat or rising; no compound was filed as active; the % refers to the polarisation; negative = inhibition;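 note: % of control where 0% means no effect; inhibitors lower the polarisation; unlabelled MLL peptide was the positive control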
gsp antagonist – antagonizes gsp, the McCune-Albright syndrome mutation; hit rate 0.4% among 340,000; AID 624288; gsp-mutant cells, cAMP HTRF, 30 min; control for the full effect not named in the record; Potency, µM (titrated, usually from 76.9 µM), for inactives: at the top dose activity change, negative = inhibition, most hits filed as inhibitors; active = falling curve of any shape with a large fitted effect; inconclusive = falling curve, mostly with a smaller effect; inactive = flat or rising curve; cell line not stated here;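 note: intracellular cAMP measured with PDE inhibitor Ro 20-1724 present during compound exposure; potency is the fitted concentration of half-maximal effect; % is set by controls: 0 for no effect and ±100 for the full control effect; nearly all actives have a fitted effect of over 65% in size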
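Cells in G418 medium, seeded 16-24 h, 37C; buffer exchange to DPBS + 1 mM CaCl2, 0.5 mM MgCl2, 0.05% BSA; cpds in DMSO + […] (300 uM stock), 30 min 37C; HTRF cAMP detection.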
TRPML1 ag – human mucolipin-1 channel agonism; Q9GZU1; TRPML1-expressing cells, Ca2+ dye fluorescence, FDSS; host cell line not named in the record; reference of the full effect not given here; activation, % (test concentration not listed); hit rate 0.12% among 410,000; AID 624414; in the data active = activation above about 50%; inconclusive = about 30% to 50%; inactive = below about 30%; note: 0% is about no effect; the text of the record puts the active cut at 80%
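Tet-induced TRPML1-DL cells, 1,500 per well, cultured overnight, were loaded with a no-wash Ca2+ dye for 45–90 min. Calcium fluorescence was recorded on the FDSS for 110 s after compound addition, before the EC80 agonist (4 uM 54-4) was added.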
* marks the source's active call; other numbers are inactive results; ? = inconclusive; . = no result given; [ ] = remark or other dose.

No.	Compound	gsp agonist	ClpP mod	TRPML1 inh	Menin-MLL FL inh	gsp antagonist	TRPML1 ag
1	Oc1ccc2ccccc2c1CN1CCCC1	-8%[15.4 µM]	.	15	1.0	-4%	-0.7
2	COc1cc2c(cc1OC)C(CSc1ccccc1C(=O)O)=NC(C)(C)C2	1%[15.4 µM]	.	8	11	11%	-0.4
3	CC1CCCCN1CCNC(=O)C1CCN(S(=O)(=O)c2cccc3nsnc23)CC1 (configuration not stated)	15%	-2.4%	0	.	7%	0.8
4	COc1ccc(/C=C/C(=O)O/N=C(\N)c2ccccn2)cc1OC	-21%[15.4 µM]	.	3	.	-3%	9.9
5	Cc1c(CCNC(=O)c2ccc(Br)o2)sc2nc(-c3ccc(F)cc3)nn12	.	-2.5%	-5	.	.	3.8
6	CCc1ccc(CN(C)C(=O)C2CCC(=O)N(CC3CCCCC3)C2)cc1 (configuration not stated)	5%[15.4 µM]	0.4%	13	-1.2	-8%	-0.4
7	C=CCN1C(=O)N(c2ccc(Cl)cc2)C(=O)C1CC(=O)Nc1ccc(F)cc1 (configuration not stated)	-2%	0.2%	-4	-0.1	-11%	0.0
8	Cc1nc2sc(C(N)=O)c(N)c2c(C)c1CC(=O)c1ccccc1	39%	-0.9%	5	5.3	-4%	-0.9
9	O=C(CCCN1C(=O)c2cccc3cccc(c23)C1=O)N1CCN(Cc2ccc3c(c2)OCO3)CC1	2%	?	15	-1.1	0%	4.0
10	Cc1cc(Cl)ccc1OCC(=O)NCC(=O)N/N=C/c1ccco1	0%[15.4 µM]	.	1	1.6	15%	2.1
11	O=C(Nc1ccc(NC(=S)NC(=O)C(c2ccccc2)c2ccccc2)cc1)c1ccccc1	-28%	-0.7%	10	.	3%	-0.6
12	O=C(Nc1c(-c2ccccc2)nc2ccccn12)c1cccc(F)c1	-22%	.	6	3.0	-5%	1.8
13	CC(=O)c1sc(NC(=O)c2ccc(Br)o2)nc1C	?	0.2%	9	.	-17%	0.9
14	CCCCCNc1nc(-c2ccccc2)nc(-n2ccnc2)n1	0%[15.4 µM]	25µM*	61	3.3	3%	1.6
15	COCCN(C(=O)CNC(=O)c1ccco1)C(C(=O)NC1CCCC1)c1ccc(OC)c(OC)c1 (configuration not stated)	27%[15.4 µM]	-3.6%	0	0.3	9%	-0.3
16	COc1ccc(OC)c(N=C(C)C2=C(O)COC2=O)c1	12%	3.6%	-17	0.1	-8%	1.4
17	COc1cc(OC)cc(C(=O)N[C@H](C(=O)OCC(N)=O)C(C)C)c1	-32%[inhibitor]	0.6%	8	10	18%	-0.4
18	COc1ccc(C(=O)Nc2ccc(N3CCN(C(=O)c4ccccc4C)CC3)cc2)cc1	-5%	5.1%	16	.	-23%	0.5
19	CCC(=O)Nc1ccc(C(=O)CSc2nnc(-c3ccccc3F)n2CCc2ccccc2)cc1	19%[15.4 µM]	-2.2%	-4	4.3	-9%	-0.3
20	CCCCCCCCCCCC1N=C(N)NC(CCCO)=C1C(=O)OC (configuration not stated)	6%	-1.6%	11	.	6%	0.0
21	CN(c1ccccc1)S(=O)(=O)c1cccc(NC(=O)Cc2n[nH]c(=O)c3ccccc23)c1	28%	-2.2%	9	.	-33%	1.2
22	O=C(O)C1CSC2(CCN(Cc3ccccc3)CC2)N1 (configuration not stated)	28%	-2.4%	-3	2.9	5%	0.5
23	NS(=O)(=O)c1ccc(NC(=S)NNC(=O)c2ccc(Br)o2)cc1	?	2.7%	7	.	0%	-0.2
24	Cc1cnc(C(=O)OCC(=O)Nc2cccc(S(=O)(=O)N3CCCCC3)c2)cn1	25%	-2.9%	13	-0.4	4%	-0.6

Overlap with the part before: two compounds, followed by the next part.
No.	Compound	gsp agonist	ClpP mod	TRPML1 inh	Menin-MLL FL inh	gsp antagonist	TRPML1 ag
23	NS(=O)(=O)c1ccc(NC(=S)NNC(=O)c2ccc(Br)o2)cc1	?	2.7%	7	.	0%	-0.2
24	Cc1cnc(C(=O)OCC(=O)Nc2cccc(S(=O)(=O)N3CCCCC3)c2)cn1	25%	-2.9%	13	-0.4	4%	-0.6
25	Cc1ccc(C)c(OC(=O)C2CSC3(C)CCC(=O)N23)c1C (configuration not stated)	5%	-4.1%	-2	.	-8%	-0.1
26	CC1(C)CC1C(=O)Nc1ccc([N+](=O)[O-])cc1Br (configuration not stated)	23%[15.4 µM]	-0.7%	-3	-1.4	-5%	-0.4
27	CCN1CCN(C(=O)c2ccc3c(c2)N(Cc2ccc(C)cc2)CCS3)CC1	14%	-16%	-3	-6.0	-7%	1.1
28	O=C(Cn1ccc(NC(=O)OCc2ccccc2)nc1=O)NCCc1c[nH]c2ccccc12	.	1.2%	-13	.	-15%	-0.6
29	O=C1C=C(c2ccc3[nH]ccc3c2)CCC1	.	2.7%	29	.	3%	0.5
30	CCc1ccc2c(c1)NC(c1ccc(OC)cc1)=NC(c1ccncc1)=N2	.	-1.2%	-16	.	.	2.0
31	CC(Oc1ccccc1)C(=O)N1CCN(c2ccc(N3CCOCC3)nn2)CC1 (configuration not stated)	-1%	?	-6	.	?	0.7
32	O=C(NCC1CCCO1)c1ccc(Br)s1 (configuration not stated)	-29%	-0.4%	-3	.	7%	-0.4
33	O=C(CCCN1C(=O)/C(=C/c2cccs2)SC1=S)Nc1ccccn1	3%[15.4 µM]	.	21	7.1	-29%	2.5
34	Cc1ccccc1NS(=O)(=O)c1ccc2c(c1)n(C)c(=O)n2C	-1%	.	34	-5.3	-1%	-0.2
35	Cc1cccc(NC(=O)CSc2nc3ccccc3o2)c1	1%	0.5%	-3	1.1	-8%	-0.5
36	CC(Oc1ccc(F)cc1)C(=O)Nc1ccc(N2CCOCC2)cc1N1CCOCC1 (configuration not stated)	4%[15.4 µM]	.	5	.	-5%	-0.6
37	CCN1C(C(=O)c2ccccc2)=C(Nc2ccccc2C)c2ccccc2S1(=O)=O	0%	-2.7%	-17	.	8%	2.5
38	CC(C)c1cc(CN2CCOCC2)cc(C(C)C)c1O	1%	0.1%	.	-0.8	-2%	.
39	COc1ccc(-n2c(SCC(=O)N3CCOCC3)nc3ccccc3c2=O)cc1	-9%	-1.9%	2	.	17%	-0.2
40	Brc1ccc(CN2CCc3nc(N4CCN(c5ncccn5)CC4)ncc3C2)cc1	.	27%	-8	.	.	0.1
41	CCNS(=O)(=O)c1ccc(CCC(N)=O)cc1	?	.	14	3.2	-14%	0.4
42	CCS(=O)(=O)N1CCc2cc(C(=O)NCc3ccccc3Cl)ccc21	.	-2.4%	-17	.	.	-0.9
43	CCOC(=O)[C@@H]1[C@H]2COc3cc(OC)ccc3[C@@H]2N2C(=O)N(c3ccc(C)cc3)C(=O)[C@@]12C	.	-4.0%	22	7.9	-9%	1.4
44	O=c1c2ccccc2c(-c2ccc(Cl)cc2)nn1-c1ccccc1	?	-8.1%	69	-0.6	?	5.7
45	O=C(CN1C(=O)CSC1=O)Nc1ccccc1F	26%	-0.7%	-14	0.1	8%	0.0
46	OC[C@H]1O[C@H](OC[C@H]2O[C@H](OC[C@H]3O[C@H](O[C@]4(CO)O[C@H](CO)[C@@H](O)[C@@H]4O)[C@H](O)[C@@H](O)[C@@H]3O)[C@H](O)[C@@H](O)[C@H]2O)[C@H](O)[C@@H](O)[C@H]1O	.	-0.5%	-4	.	2%	0.6
47	Cc1cc(C)cc(NC(=O)[C@H](NC(=O)[C@@H]2Cc3ccccc3CN2)c2ccccc2)c1	15%	.	-4	.	-4%	0.1
48	Cc1nc2ccccn2c1C(=O)NC1CCCC1	-2%[15.4 µM]	0.8%	-2	0.2	1%	-1.3
49	CCOc1ccccc1-c1nnc(SCC(=O)NC2CC2)n1CC	1%[15.4 µM]	1.2%	2	0.2	-2%	-0.5
50	CCN(CC)S(=O)(=O)c1ccc(N2CCCC2)c(NC(=O)CN2C(=O)NC3(CCCC3)C2=O)c1	7%[15.4 µM]	-0.4%	19	.	-2%	0.3
51	O=C(CSc1nc(=O)[nH]c2c1CCCC2)NCc1ccc(F)cc1	.	-2.3%	11	.	.	-0.5
52	Cc1ccc(C(=O)Nc2nccs2)cc1	-1%[15.4 µM]	.	-9	-3.9	-1%	0.1
53	Cc1ccc(S(=O)(=O)Oc2ccc(/C=C(/NC(=O)c3ccccc3)C(=O)O)cc2)cc1	-1%[15.4 µM]	.	0	0.8	8%	0.7
54	NNC(=O)c1csc(-c2ccccc2)n1	14%[15.4 µM]	-0.7%	6	7.1	6%	-0.4
55	CCCS(=O)(=O)NCc1ccc2c(c1)cc(C)n2C	10%	-11%	-5	1.9	-4%	0.9
56	CC1CCCC(C)N1C(=O)CSc1nc2c(c(=O)n(C)c(=O)n2C)n1C (configuration not stated)	26%[15.4 µM]	.	-13	7.0	1%	0.1
57	CCC1Oc2ccc(C)cc2N(CC(=O)NC2CCCCC2)C1=O (configuration not stated)	-38%[inhibitor]	.	18	6.0	-3%	2.9
58	CCCSc1nc2c(c(=O)[nH]c(=O)n2C)n1Cc1ccc(C)cc1	12%	-2.5%	-5	-2.5	16%	0.5
59	Cc1ccc(C23CC4CC(CC(C(=O)N5CCN(C)CC5)(C4)C2)C3)cc1	14%	-0.4%	4	-1.1	3%	0.8
60	Cc1ccc(-c2nnn(CC(=O)N(c3cccc(F)c3)C(C(=O)NC(C)(C)C)c3ccco3)n2)o1 (configuration not stated)	5%[15.4 µM]	.	-4	-3.9	9%	3.3
61	CCC(C)c1ccc(NC(=O)COC(=O)c2nc3nccc(C)n3n2)cc1 (configuration not stated)	-81%[inhibitor]	0.3%	-9	-6.8	5%	1.2
62	Cc1nc(-n2nc(C)c(CCC(C)C)c2C)sc1C(=O)Nc1ccc(Cl)cc1	.	-3.6%	-1	.	.	0.7
63	Cc1c(C(=O)OCCOc2ccccc2)[nH]c2c1C(=O)CCC2	-26%	-2.3%	21	-1.3	-19%	-0.2
64	O=C1C2CCCN2C(=O)N1CCCCN1CCN(c2cccc(C(F)(F)F)c2)CC1 (configuration not stated)	4%	-5.3%	10	-1.1	4%	-0.8
